Compound activity: PubChem, National Center for Advancing Translational Sciences (NCATS)
D2 ag – agonists of human D2 dopamine receptor (beta-arrestin) | activation, % (no concentration beside the values) | DiscoveRx PathHunter D2 beta-arrestin, luminescence, 90 min; 100% = 57 uM dopamine signal | 360,000 tested, 0.084% active | P14416 | AID 624465; in the data active = activation above about 40%; inconclusive = about 15% to 40%; inactive = below about 15%; further: compound concentration not given in the record; the text of the record calls up to 30% inactive
Target sequence (P14416 whole entry, looked up): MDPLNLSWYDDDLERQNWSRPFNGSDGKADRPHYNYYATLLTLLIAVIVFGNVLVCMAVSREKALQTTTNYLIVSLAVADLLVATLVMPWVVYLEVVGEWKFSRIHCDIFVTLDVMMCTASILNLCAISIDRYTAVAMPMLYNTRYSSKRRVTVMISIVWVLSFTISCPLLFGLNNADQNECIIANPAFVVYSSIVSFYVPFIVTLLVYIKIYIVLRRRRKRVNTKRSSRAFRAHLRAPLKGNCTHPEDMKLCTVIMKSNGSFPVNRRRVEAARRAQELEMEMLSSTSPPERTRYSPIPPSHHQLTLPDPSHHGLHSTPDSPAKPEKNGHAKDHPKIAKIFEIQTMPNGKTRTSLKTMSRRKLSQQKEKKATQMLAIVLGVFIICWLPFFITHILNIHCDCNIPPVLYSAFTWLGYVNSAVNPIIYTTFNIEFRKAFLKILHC
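Agonist mode: compounds alone added to overnight-plated D2 PathHunter cells for 90 min at 37 C, with 57 uM final dopamine (EC100) defining full response. Beta-arrestin recruitment detected by chemiluminescent reagent, read after 1 h at ambient temperature.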
D2 potentiator – potentiates the human D2 dopamine receptor allosterically; P14416; potentiation, % (concentration not given with the values); DiscoveRx D2 beta-arrestin cells, luminescence, 90 min; 100% = 57 uM dopamine signal; 360,000 tested, 0.23% active; AID 624464; active = potentiation of 50% or more; inconclusive = 30% to 50%; inactive = 30% or less;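 further: compound concentration not given in the record; tested on top of an EC20 dose of dopamine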
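D2 cells co-treated with compound plus 50 nM dopamine (EC20) for 90 min at 37 deg C to detect potentiation. Beta-arrestin recruitment was read as enzyme-fragment luminescence after 1 h at ambient temperature. Full response was set by 57 uM dopamine.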
PINK1 expr mod – PINK1 expression modulation; Potency, µM (series often up to 76.6 µM), for inactives: at the highest dose activation (PINK1 increase), hits mostly activators; 410,000 tested, 0.2% active; PINK1 immunofluorescence, high-content cytometry, 24 h; active = well fitted activation curve with a large enough effect; inconclusive = small, poorly fitted or top-dose-only effect; inactive = flat fitted curve, though single readings scatter; cell line not stated here;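 further: potency means the concentration at half of the fitted maximal effect; % of control where 0% means no effect; nearly all actives have a fitted effect of over 65% in size; a mitochondrial uncoupler was the plate control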
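Decision-based qHTS: stable cells, 24 h exposure to five compound concentrations, CCCP as control. Fixed cells stained for PINK1 plus nuclear, mitochondrial and cell markers, cytometer read.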
Six1-Eya2 blk – inhibitors of human Six1/Eya2 interaction | activity change, % (no concentration beside the values) | 360,000 tested, 0.56% active | AlphaScreen GST-Six1/His-Eya2 binding, biochemical; hits give low values; control for the full effect not named in the record; in the data active = activity change below about -65%; inconclusive = about -30% to -65%; inactive = above about -30%; further: on the % scale 0 is the no-effect control and ±100 the full control effect; compound concentration not given in the record
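Six1/Eya2 binding was read as AlphaScreen signal after compounds were pinned into GST-Six1 plus His-tagged Eya2 (5X stock 250/500 nM) in pH 8.0 Tris/NaCl/TCEP buffer, beads added, then incubated 1 h, 37 C, dark.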
TRPML1 agonist – agonists of human TRPML1 channel | activation, % (concentration not given with the values) | Q9GZU1 | TRPML1-expressing cells, Ca2+ dye fluorescence, FDSS; host cell line not named in the record; reference of the full effect not given here | 410,000 tested, 0.12% active; in the data active = activation above about 50%; inconclusive = about 30% to 50%; inactive = below about 30%; further: 0% is about no effect; the text of the record puts the active cut at 80%
Target sequence (Q9GZU1 whole entry, looked up): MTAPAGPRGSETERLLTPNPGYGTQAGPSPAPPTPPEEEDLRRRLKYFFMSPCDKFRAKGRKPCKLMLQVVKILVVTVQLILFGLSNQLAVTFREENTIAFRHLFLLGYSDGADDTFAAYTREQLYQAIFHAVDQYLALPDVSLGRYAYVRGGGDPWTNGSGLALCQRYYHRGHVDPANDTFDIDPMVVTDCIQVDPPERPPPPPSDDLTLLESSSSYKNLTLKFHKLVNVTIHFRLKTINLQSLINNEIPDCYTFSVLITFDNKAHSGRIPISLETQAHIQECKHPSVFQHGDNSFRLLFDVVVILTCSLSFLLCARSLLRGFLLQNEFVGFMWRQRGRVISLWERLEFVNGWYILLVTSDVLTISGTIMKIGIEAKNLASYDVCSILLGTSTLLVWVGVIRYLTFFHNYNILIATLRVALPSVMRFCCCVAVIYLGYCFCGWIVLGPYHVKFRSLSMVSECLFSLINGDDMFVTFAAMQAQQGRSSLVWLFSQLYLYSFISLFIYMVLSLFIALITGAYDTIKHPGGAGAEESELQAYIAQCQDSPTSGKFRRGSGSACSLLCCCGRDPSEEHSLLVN
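Cells: TRPML1-DL, 1X Tet inducer, ~16 h at 37 degrees C/5% CO2. Dye: ABD Ca8 no-wash + quencher, 45-90 min RT. Read: 10 s baseline, compound add, 110 s agonist phase; 54-4 EC80 (4uM final), 110 s antagonist phase.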
CtBP-E1A blk – inhibitors of CtBP/E1A interaction; AlphaScreen GST-E1A/His-CtBP binding, 1536-well; hits give low values; control for the full effect not named in the record; activity change, % (concentration not given with the values); 340,000 tested, 0.49% active; in the data active means activity change below about -65%; inconclusive means about -30% to -65%; inactive means above about -30%; further: on the % scale 0 is the no-effect control and ±100 the full control effect
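Protein mix (5X: 125 nM each GST-E1A, His-CtBP) was incubated with pinned compound 2 h at 37 deg C in dark, in 50 mM Tris pH 8.0 buffer with 300 mM NaCl. Glutathione donor and nickel acceptor beads followed; AlphaScreen signal read after 1 h.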
Starred values were filed as active, the others as inactive; u = inconclusive; x = no result given; [ ] = remark or other dose.

(1) O=C(O)c1cccc([N+](=O)[O-])c1C(=O)Nc1ccc2ccccc2c1
(2) CCCN1CCN(C(=O)c2cc(COc3ccc(F)c(F)c3)on2)CC1
(3) CCOCCn1c(SCCc2ccccc2)nc2c1c(=O)[nH]c(=O)n2C
(4) C=CCn1c(SCC(=O)c2c(N)n(C)c(=O)n(C)c2=O)nc2sc(CC)cc2c1=O
(5) C=CCNC(=O)C(=O)N/N=C/c1cccc(Br)c1
(6) Cc1sc(NC(=O)CN(CCc2ccccc2)C(=O)C2CC2)c(C(N)=O)c1C
(7) CCC(C)[C@H](NC(=O)[C@@H]1CSC2c3ccccc3C(=O)N21)C(=O)NCc1ccco1 (stereo partly drawn)
(8) CC(C)NC(=O)C1CCN(C(=O)C(C(=O)c2ccccc2)n2cc(Cl)ccc2=O)CC1 (stereo not drawn)
entry no. | 1 | 2 | 3 | 4 | 5 | 6 | 7 | 8
D2 ag | 3.9 | 1.0 | -3.0 | 0.1 | 1.9 | -0.2 | 2.2 | 3.1
D2 potentiator | 2.6 | -7.3 | -5.6 | 0.2 | -2.2 | -6.0 | -10.0 | 5.2
PINK1 expr mod | 5.8% | -0.4% | -1.2% | 0.0% | 0.7% | -2.1% | 1.7% | -0.8%[38.3 µM]
Six1-Eya2 blk | -10.1 | -2.8 | 4.5 | 4.1 | 1.3 | -1.8 | -1.8 | 0.9
TRPML1 agonist | 3.2 | -0.3 | -0.6 | -0.8 | 0.7 | -0.1 | 1.9 | -0.1
CtBP-E1A blk | -4.0 | 3.5 | -3.8 | 10.0 | 4.0 | 2.1 | -1.4 | 2.1

Four structures already listed, sorted by count of non-hydrogen atoms, highest first:
(7) CCC(C)[C@H](NC(=O)[C@@H]1CSC2c3ccccc3C(=O)N21)C(=O)NCc1ccco1 (stereo partly drawn)
(6) Cc1sc(NC(=O)CN(CCc2ccccc2)C(=O)C2CC2)c(C(N)=O)c1C
(3) CCOCCn1c(SCCc2ccccc2)nc2c1c(=O)[nH]c(=O)n2C
(1) O=C(O)c1cccc([N+](=O)[O-])c1C(=O)Nc1ccc2ccccc2c1
entry no. | 7 | 6 | 3 | 1
D2 ag | 2.2 | -0.2 | -3.0 | 3.9
D2 potentiator | -10.0 | -6.0 | -5.6 | 2.6
PINK1 expr mod | 1.7% | -2.1% | -1.2% | 5.8%
Six1-Eya2 blk | -1.8 | -1.8 | 4.5 | -10.1
TRPML1 agonist | 1.9 | -0.1 | -0.6 | 3.2
CtBP-E1A blk | -1.4 | 2.1 | -3.8 | -4.0

The listing continues:
(9) COc1ccc(C2C(C(N)=O)=C(C)Nc3nc(-c4ccccc4OC)nn32)cc1OC (stereo not drawn)
(10) O=C(CN1C(=O)COc2ccccc21)N1CCOCC1
(11) COc1ccc(CCNC(=O)C(=O)NCc2ccccc2)cc1OC
(12) Cc1ccc(CN(C)C(=O)COC(=O)CSc2ccc([N+](=O)[O-])cc2)cc1
(13) CCOC(=O)c1cnc(N2CCN(C(=O)OCC)CC2)[nH]c1=O
(14) Cc1cc(C)n2cc(-c3ccc(Cl)cc3)c(C(=O)O)c2n1
(15) O=C(CCc1ccccc1)Nc1ncc2c(n1)CCCC2=O
(16) CC(C(=O)N1CCCC1)c1ccc([N+](=O)[O-])cc1 (stereo not drawn)
entry no. | 9 | 10 | 11 | 12 | 13 | 14 | 15 | 16
D2 ag | -2.4 | -4.4 | -0.1 | 1.7 | 0.6 | -2.7 | -1.2 | -1.6
D2 potentiator | -9.2 | -3.1 | 24.0 | 0.2 | -1.3 | -10.4 | 12.2 | -0.7
PINK1 expr mod | 0.9% | 1.5% | 6.0% | -1.0% | 0.7% | 4.4% | -0.6% | 0.2%
Six1-Eya2 blk | -0.8 | 0.9 | 3.3 | -12.4 | 10.7 | 8.0 | 11.6 | 4.4
TRPML1 agonist | -0.9 | 0.3 | -0.6 | 1.8 | -0.8 | -0.5 | 0.4 | -0.6
CtBP-E1A blk | -0.1 | x | 2.7 | -3.4 | 3.5 | -2.6 | 6.3 | 1.3

(17) CCOc1ccc(CCNC(=O)COC(=O)c2ccc(Cl)nc2)cc1OCC
(18) O=C(CCCN1C(=O)c2ccccc2C1=O)NCCCN1CCOCC1
(19) Cc1nn(C)c(Cl)c1CN1CCN(CCC(C)C)C(CCO)C1 (stereo not drawn)
(20) COc1ccccc1N1CCN(C(=O)c2cc3c(s2)CCC3)CC1
(21) Cc1cccc(C)c1OCCN1CCCC1
(22) CCO/N=C(/c1nonc1N)N1CCN(c2ccc([N+](=O)[O-])cc2)CC1
(23) COC(=O)c1ccc(CO/N=C/c2ccc(OC)cc2OC)cc1
(24) CCOc1ccccc1NC(=O)C1CCN(C(=O)NCc2ccccc2)CC1
entry no. | 17 | 18 | 19 | 20 | 21 | 22 | 23 | 24
D2 ag | 1.6 | 0.5 | -4.9 | -2.2 | 0.0 | -1.7 | -4.3 | 0.9
D2 potentiator | -12.8 | -2.2 | -7.5 | -13.0 | -2.0 | 3.7 | -8.1 | -2.1
PINK1 expr mod | 3.6% | 2.4% | 1.0% | -1.8% | 0.4% | u | 4.1% | 0.9%
Six1-Eya2 blk | -6.3 | -3.3 | 6.6 | -3.3 | 0.2 | -2.8 | 20.8 | 4.1
TRPML1 agonist | -0.4 | 0.4 | x | 0.5 | 0.2 | 0.4 | 2.7 | -0.1
CtBP-E1A blk | -4.3 | 12.6 | 3.9 | -0.9 | -0.3 | 4.6 | x | 5.5

Reformatted: entries from further up
# | SMILES | D2 ag | D2 potentiator | PINK1 expr mod | Six1-Eya2 blk | TRPML1 agonist | CtBP-E1A blk
20 | COc1ccccc1N1CCN(C(=O)c2cc3c(s2)CCC3)CC1 | -2.2 | -13.0 | -1.8% | -3.3 | 0.5 | -0.9
21 | Cc1cccc(C)c1OCCN1CCCC1 | 0.0 | -2.0 | 0.4% | 0.2 | 0.2 | -0.3

The listing continues.
(25) COC(=O)COc1ccc(S(=O)(=O)NCc2ccc3c(c2)OCO3)cc1C
(26) COc1ccc(CC(=O)N/N=C/c2cccnc2)cc1OC
(27) O=c1[nH]c(=S)[nH]nc1Cc1ccccc1
(28) Cc1onc(-c2ccccc2Cl)c1C(=O)N1CC(C)OC(C)C1 (stereo not drawn)
(29) CC1CN(C(=S)NC(=O)c2ccccc2)CC(C)O1 (stereo not drawn)
(30) OC(COc1c(F)cc(Br)cc1F)CN1CCN(c2ccc(F)cc2)CC1 (stereo not drawn)
(31) O=C(Nc1ccccc1)c1ccccc1NC(=O)[C@H]1CCCC[C@H]1C(=O)O
(32) CCCC(=O)NC(c1ccc(N(C)C)cc1)c1ccc2cccnc2c1O (stereo not drawn)
entry no. | 25 | 26 | 27 | 28 | 29 | 30 | 31 | 32
D2 ag | -3.3 | -0.3 | -3.4 | -2.4 | -1.4 | 1.5 | -1.6 | 10.4
D2 potentiator | -2.3 | -26.8 | -2.8 | -1.3 | -6.0 | -14.4 | 0.0 | -2.4
PINK1 expr mod | 6.1% | -0.4% | -2.9% | -3.2%[38.3 µM] | 1.0% | u | 1.2% | -0.1%
Six1-Eya2 blk | -1.7 | 2.0 | 2.6 | 3.6 | 1.5 | -18.7 | 4.4 | -69.4*
TRPML1 agonist | -0.5 | 0.4 | -0.7 | 1.7 | -0.4 | -0.3 | 0.5 | -0.2
CtBP-E1A blk | 4.8 | -11.9 | 1.6 | 9.4 | 4.5 | -7.2 | 1.4 | -91.7*

(33) O=C(NCCCN1CCOCC1)C1(c2ccccc2)CCOCC1
(34) Cc1ccc(S(=O)(=O)N2CCN(C(=O)c3ccccc3OCc3c(C)noc3C)CC2)cc1
(35) O=C(Nc1ccc(F)cc1)C(c1ccccc1)N1CCN(S(=O)(=O)c2ccc3ccccc3c2)CC1 (stereo not drawn)
(36) COCCN(Cc1cc2cc(C)ccc2n2nnnc12)C(=S)Nc1ccccc1C
(37) Cc1[nH]c(C)c(S(=O)(=O)NCc2ccc(F)cc2)c1C(=O)N1CCCCC1
(38) CC1(C)Oc2ccc(C(=O)N3CCCCC3)cc2N(CC(=O)NCc2ccccc2)C1=O
(39) COc1cc(NC(=O)CCN2CCN(C/C=C/c3ccccc3)CC2)cc(OC)c1
(40) Cc1ccc(CNC(=O)CCCNS(=O)(=O)c2cccc3nonc23)cc1
entry no. | 33 | 34 | 35 | 36 | 37 | 38 | 39 | 40
D2 ag | -2.1 | -0.3 | 0.6 | -6.0 | 2.3 | -2.4 | -0.6 | -2.6
D2 potentiator | -2.6 | -1.6 | -10.1 | -5.9 | -8.6 | -7.9 | -6.2 | -2.3
PINK1 expr mod | -0.8% | 8.2% | -0.3% | 0.4% | -1.2% | -0.3% | -0.2% | 0.0%
Six1-Eya2 blk | 4.4 | 6.5 | 1.3 | 6.4 | 2.3 | 1.5 | -20.2 | -1.9
TRPML1 agonist | -1.0 | 1.1 | 1.9 | 0.0 | -0.1 | -0.6 | -1.1 | -0.8
CtBP-E1A blk | 3.2 | -2.1 | 8.1 | x | 9.4 | 0.6 | x | 2.2

(41) O=C(CNS(=O)(=O)c1ccccc1)N/N=C/c1ccncc1
(42) CCOC(=O)c1c(NC(=O)C(C)Sc2cn(C)c3ccccc23)sc2c1CCC2 (stereo not drawn)
(43) CN(CCC#N)C(=O)COC(=O)c1ccc2[nH]c3c(c2c1)CCCC3
(44) Fc1ccccc1-c1nc(N2CCCCC2)c2ccccc2n1
(45) Cc1[nH]c2ccccc2c1CCC(N)=O
(46) COc1ccc(OC(F)(F)F)cc1CC1(C)C(=O)Nc2cccc(Cl)c21 (stereo not drawn)
(47) O=C(Nc1ccccc1Cl)C1C2CCCCC21 (stereo not drawn)
(48) CCC(CC)C(=O)N1CCN(c2ccccc2)CC1
entry no. | 41 | 42 | 43 | 44 | 45 | 46 | 47 | 48
D2 ag | -2.3 | -3.5 | -2.2 | -0.3 | -1.8 | -0.4 | -0.1 | 0.9
D2 potentiator | -9.8 | -5.7 | -7.3 | -4.8 | -9.3 | -15.2 | -0.8 | -3.7
PINK1 expr mod | 2.7% | -0.5% | 0.6% | 1.1% | 0.1%[38.3 µM] | 0.1% | 4.1% | -1.5%
Six1-Eya2 blk | 0.2 | 0.6 | -1.8 | 0.2 | -2.3 | 4.2 | 3.2 | 7.5
TRPML1 agonist | -0.9 | 0.3 | -0.2 | 0.2 | 0.9 | 1.3 | -0.2 | -0.1
CtBP-E1A blk | x | 2.7 | -6.0 | 10.8 | 0.7 | 2.3 | 7.8 | 2.2

(49) O=C1/C(=N\S(=O)(=O)c2cccs2)C([n+]2ccccc2)=C([O-])c2ccccc21
(50) C=CCN(c1ccccc1C(=O)NCC(=O)O)S(=O)(=O)c1ccc(C)cc1
(51) CCOc1ccccc1Nc1nnc(SCC(=O)NC2CC2)s1
(52) COc1cc(C(=O)OCC(=O)NC2CCS(=O)(=O)C2)ccc1OCc1c(C)noc1C (stereo not drawn)
entry no. | 49 | 50 | 51 | 52
D2 ag | 4.8 | -2.5 | -1.6 | -1.3
D2 potentiator | 12.8 | -2.8 | -5.0 | 2.3
PINK1 expr mod | -1.3% | 1.2% | 0.8% | 2.7%
Six1-Eya2 blk | 6.3 | 8.3 | -7.5 | 3.3
TRPML1 agonist | -1.0 | 0.4 | -1.5 | -0.4
CtBP-E1A blk | x | 0.9 | x | -1.2
